Screens deposited in PubChem BioAssay by National Center for Advancing Translational Sciences (NCATS).
NS1 function inh: qHTS Assay for Inhibitors of Influenza NS1 Protein Function | S. cerevisiae slowed by influenza A NS1, growth recovery by OD600 | Potency, µM (top dose mostly 46.1 µM), for the others: at the top dose activity, positive = more growth | actives 0.4% (n = 270,000); active means well fitted rising curve with a large enough effect; inconclusive means small, poorly fitted or top-dose-only effect; inactive means no such curve, though single readings can be large or run the other way; also: nearly all actives have a fitted effect of over 50% in size
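Recovery from NS1-induced slow growth read by OD600 in budding yeast switched to galactose assay medium (pH 6.0, -URA) at 1:100 dilution. Compound 23 nl per well; the matching strain lacking NS1 serves as control.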
Cruzain inh Det: qHTS Assay for Promiscuous and Specific Inhibitors of Cruzain (with detergent). Cruzipain (Trypanosoma cruzi), P25779. purified cruzain, Z-FR-AMC fluorescence, 0.01% Triton. Potency, µM, without a hit: max response, negative = inhibition, usual class: inhibitors. actives 0.43% (n = 200,000). AID 1478, 2009;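 also: plate controls were neutral wells for no effect and buffer without enzyme for full effect; nearly all actives have a fitted effect of over 40% in size; top concentration of the series not given in the record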
Target sequence (P25779 123-467 limits assumed): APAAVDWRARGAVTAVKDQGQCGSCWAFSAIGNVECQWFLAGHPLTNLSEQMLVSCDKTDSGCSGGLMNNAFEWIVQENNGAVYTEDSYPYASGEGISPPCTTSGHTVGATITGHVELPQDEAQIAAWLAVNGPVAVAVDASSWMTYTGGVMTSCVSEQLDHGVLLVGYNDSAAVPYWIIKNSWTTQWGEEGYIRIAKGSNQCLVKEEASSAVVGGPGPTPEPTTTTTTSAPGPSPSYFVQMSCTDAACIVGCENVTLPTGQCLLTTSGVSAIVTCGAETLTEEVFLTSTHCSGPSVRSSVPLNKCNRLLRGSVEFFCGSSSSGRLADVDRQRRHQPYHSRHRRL
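Steps: dispense cruzain (1.5 nM final) in acetate buffer pH 5.5 with DTT and 0.01% Triton X-100; pin-transfer compounds; incubate 15 min RT; add Z-FR-AMC (2 uM final); read fluorescence every 30 s, using the 60 s intensity change.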
Lassa entry inh: qHTS for Inhibitors of binding or entry into cells for Lassa Virus; Potency, µM (series often up to 37.9 µM), inactives show at the highest dose activity change, negative = inhibition, actives largely listed as inhibitors; Lassa virus pseudotype entry inhibition, cell reporter; control for the full effect not named in the record; actives 1.2% (n = 300,000); active means well fitted inhibition curve with a large enough effect; inconclusive means small, poorly fitted or top-dose-only effect, or effect the other way; inactive means flat fitted curve, though single readings scatter; tested in HEK293 cells; also: % is scaled to controls: 0 for no effect and ±100 for the full control effect; nearly all actives have a fitted effect of over 50% in size; luciferase read-out
SARS PLP yeast: qHTS of Yeast-based Assay for SARS-CoV PLP; S. cerevisiae expressing SARS-CoV PLpro, growth rescue; control for the full effect not named in the record; Potency, µM (titrated, usually from 32.9 µM), for inactives: top-dose activity, positive = growth rescue; actives 0.19% (n = 330,000); active means well fitted rising curve with a large enough effect; inconclusive means small, poorly fitted or top-dose-only effect; inactive means no such curve, though single readings can be large or run the other way; also: 0% is about no effect; nearly all actives have a fitted effect of over 55% in size; growth read by luminescence after 48 h
2A StopGo: High Throughput Screening for Foot and Mouth Disease Virus Antivirals; human cells with a luciferase reporter of 2A StopGo recoding; control for the full effect not named in the record; actives 1.2% (n = 410,000); AID 1159524, 2015; Potency, µM (highest dose often 57.9 µM), without a hit: at the top dose signal change, negative = less light; active = well fitted falling curve with a large enough effect; inconclusive = small, poorly fitted or top-dose-only effect; inactive = no such curve, though single readings can be large or run the other way; tested in HEK293T cells; also: % is scaled to controls: 0 for no effect and ±100 for the full control effect; nearly all actives have a fitted effect of over 45% in size; luciferase light after 4 h
Cruzain noTriton: qHTS Assay for Promiscuous and Specific Inhibitors of Cruzain (without detergent); Cruzipain (Trypanosoma cruzi), P25779; purified cruzain, Z-FR-AMC fluorescence, no detergent; Potency, µM, for the others: max response, negative = inhibition, hits mostly inhibitors; actives 2.3% (n = 200,000);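 also: plate controls were enzyme without inhibitor for no effect and buffer without enzyme for full effect; nearly all actives have a fitted effect of over 40% in size; top concentration of the series not given in the record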
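Purified cruzain at 1.5 nM, pre-incubated 15 min with compound at room temperature in 100 mM sodium acetate pH 5.5, 5 mM DTT, 0.00005% Triton X-100. Reaction started with 2 uM Z-FR-AMC; AMC fluorescence increase over 60 s gives rate.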
RE007 growth inh: qHTS Assay for Inhibitors of the HIV-1 protein Vpr; S. pombe RE007 Vpr strain, BacTiter-Glo ATP luminescence, 24 h; control for the full effect not named in the record; Potency, µM (top dose mostly 92.2 µM), for the others: top-dose activity change, negative = less growth; actives 0.21% (n = 360,000); AID 651644, 2012; active = well fitted falling curve with a large enough effect; inconclusive = small, poorly fitted or top-dose-only effect; inactive = no such curve, though single readings can be large or run the other way;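 also: % is scaled to controls: 0 for no effect and ±100 for the full control effect; nearly all actives have a fitted effect of over 50% in size; the assay follows cell death caused by Vpr and the record does not say whether a fall means rescue or toxicity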
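Fission yeast RE007 carrying one integrated HIV-1 vpr copy, seeded at OD 0.01 in PMG+AL medium with 23 nL pinned compound. Grown 24 h at 30 degrees; viability read by BacTiter-Glo luminescence after 5 min.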
Marburg entry inh: qHTS for inhibitors of binding or entry into cells for Marburg Virus; Marburg virus pseudotyped entry inhibition, cell reporter; control for the full effect not named in the record; about a third of the inactives were read at about 46 µM; Potency, µM (doses to about 37.8 µM), inactives show at the top dose activity change, negative = inhibition, usual class: inhibitors; actives 1.8% (n = 300,000); AID 540276, 2011; active = well fitted inhibition curve with a large enough effect; inconclusive = small, poorly fitted or top-dose-only effect, or effect the other way; inactive = flat fitted curve, though single readings scatter; tested in HEK293 cells; about a fifth of its hits are not listed in these tables; also: % is scaled to controls: 0 for no effect and ±100 for the full control effect; luciferase read-out
* marks the source's active call; other numbers are inactive results; ? = inconclusive; nt = no result given; & = joins results of further samples; [ ] = another dose, or the depositor's remark. Unless noted, calls follow the shape of the dose curve; as a rule, active = well fitted curve in the direction sought with a large enough effect; inconclusive = small, poorly fitted or top-dose-only effect, or another doubt; inactive = no such curve, though single readings can be large; an effect the other way counts as inactive or inconclusive. Potency is read from the fitted curve at half-maximal effect.

SMILES	NS1 function inh	Cruzain inh Det	Lassa entry inh	SARS PLP yeast	2A StopGo	Cruzain noTriton	RE007 growth inh	Marburg entry inh
O=C(NCc1ccc(Cl)cc1)c1noc2c1CCCCC2	-35.9%	-5.8%	-18.9%[14.3 µM]	-4.0%	57.8%[activator]	2.8%	17.6%	?
COC(=O)N1C(=O)[C@](Cc2ccccc2)(c2ccccc2)N1C(=O)OC	14.2%	nt	nt	-1.3%	?	nt	1.6%	nt
COC(=O)c1ccc(/C=N/NC(=S)NC(C)C)cc1	10.0%	nt	nt	3.0%	9.6%	nt	-11.3%	nt
Cc1cccc(C2=NN(c3ccc(Br)cc3)[C@@H](C(=O)N3CCOC3=O)[C@@H]2C)c1	nt	-0.2%	nt	-25.2%	-12.1%	28.2µM*	6.5%	nt
O=C(COC(=O)c1nc(Cl)ccc1Cl)NNC(=O)c1ccccc1	nt	nt	-1.6%[46.1 µM]	-1.8%	-6.8%	nt	-1.6%	-3.3%
COC(=O)c1cc(Br)ccc1OC(=O)c1cccnc1	-12.0%	13.0%	?	-2.2%	-26.3%	-4.7%	-20.7%	7.1%
CCOc1ccccc1C(=O)OCC(=O)NCC1CCCCC1	nt	nt	23.5%	0.0%	-6.3%	nt	-10.9%	-17.7%[46.1 µM]
COc1ccc(Oc2coc3cc(OC(=O)N4CCOCC4)ccc3c2=O)cc1	-15.2%	0.4%	3.1%	4.6%	-23.9%	0.2%	1.4%	-21.0%
CCOc1ccc(CCNC(=O)C2=C(C)C(=O)OC23CCC(C)CC3)cc1 (stereo unspecified)	-13.8%	0.5%	-26.8%	3.2%	14.2%	15.7%	7.7%	13.6%
COc1ccc(C(CNc2ncnc3sccc23)N(C)C)cc1OC (stereo unspecified)	6.0%	nt	?	1.6%	-24.4%	nt	7.8%	9.6%[46.1 µM]
O=C(CC1N=C2c3ccccc3N=C(SCc3ccccc3Cl)N2C1=O)NC1CCCCC1 (stereo unspecified)	nt	0.7%	19.5%[46.1 µM]	nt	?	1.9%	nt	nt
O=C(Nc1ccc(N2CCN(C(=O)c3cccs3)CC2)cc1)c1cccnc1	-1.9%	nt	-0.7%[46.1 µM]	1.6%	-8.1%	nt	-11.0%	-21.7%[46.1 µM]
COC(=O)c1ccc(C(NC(=O)OCc2ccccc2)/C(F)=C/[C@@H](C)C(=O)NCc2ccc(-c3ccccc3)cc2)cc1 (stereo partly specified)	7.6%	2.1%&-4.6%	-15.6%	-7.7%	3.0%	10µM*	-2.8%	-13.6%
CC(OC(=O)CCc1nc2ccccc2c(=O)[nH]1)C(=O)Nc1ncc(Cl)cc1Cl (stereo unspecified)	1.6%	nt	-6.5%[46.1 µM]	0.4%	-16.2%	nt	3.4%	-4.3%[46.1 µM]
COc1ccc(-c2noc(CCC(=O)Nc3cc(OC)ccc3OC)n2)cc1	-31.5%	-5.7%	-16.4%	6.9%	-22.7%	11.6%	-12.3%	?
CCOc1ccc(NC(=O)CN(C)C(=O)CSCc2c(C)noc2C)cc1OCC	nt	nt	-12.4%	2.9%	-23.7%	nt	-10.0%	1.3%[46.1 µM]
CCOC(=O)C1=C(c2ccccc2)OC(N)=C(C#N)C1c1ccncc1 (stereo unspecified)	2.9%	nt	-14.8%	-1.5%	-20.1%	nt	1.2%	-0.6%[46.1 µM]
CC1CCN(C(=O)COC(=O)c2cc([N+](=O)[O-])ccc2N2CCOCC2)CC1	nt	nt	0.9%	-3.0%	0.0%	nt	-11.8%	-10.3%
COc1ccc(N(CC(=O)NCc2ccccc2Cl)S(=O)(=O)c2c(C)n[nH]c2C)cc1	-1.7%	nt	nt	-3.6%	36.8%[activator]	nt	1.2%	nt
O=C(COC(=O)C1CCN(c2ccc(C(F)(F)F)cn2)CC1)Nc1ccc(Cl)cn1	1.4%	nt	17.5%	-3.2%	4.0%	nt	-13.9%	6.5%
CN1C(N)=NC(=O)/C1=C\c1ccc(Br)cc1	3.6%	nt	nt	5.9%	19.7%	nt	-6.7%	nt
CCc1cc(C(c2ccccn2)N2CCN(C)CC2)c(NC(=O)c2ccccc2)s1 (stereo unspecified)	?	-3.6%	?	?	-20.1%	2.5%	-14.6%	?
OCC[C@@H]1C[C@H](O)[C@@H](O)[C@@]2(CCc3ccccc3CO2)O1	3.3%	nt	nt	2.1%	-6.7%	nt	0.0%	nt
CCC(C)NC(=O)c1cc2c(=O)n3cccc(C)c3nc2s1 (stereo unspecified)	6.5%	nt	15.5%	0.7%	23.6%	nt	-4.0%	?
CCOc1ccc(N2C(=O)CC(N3CCN(C4CCc5ccccc5C4)CC3)C2=O)cc1 (stereo unspecified)	-8.1%	1.2%	-5.2%	-1.2%	?	1.8%	-18.0%	4.8%
SMILES	NS1 function inh	Cruzain inh Det	Lassa entry inh	SARS PLP yeast	2A StopGo	Cruzain noTriton	RE007 growth inh	Marburg entry inh
COc1ccccc1NC(=O)N1CCN(c2ccc3nnc(-c4ccc(F)cc4)n3n2)CC1	14.9%	-7.9%	-0.9%	0.6%	-29.9%&-28.1%	?	6.3%	?
CCC(=O)Nc1ccc(C=C(C(C)=O)C(C)=O)cc1	-1.3%	nt	nt	-2.0%	20µM*	nt	-0.8%	nt
CN(C(=O)CSc1nc2ccc(NC(=O)c3ccccc3)cc2s1)c1ccccc1	nt	-7.1%	?	nt	?	-0.3%	nt	?
CC(C)OC(=O)c1ccc(NC(=O)c2ccco2)cc1	-131.1%	1.4%	?	-14.2%	-0.4%	4.4%	-19.1%	?
CN(C)/C=C(\C=O)c1onc(-c2ccccc2Cl)c1C#N	nt	nt	3.0%	2.2%	8.7%	nt	17.9%	17.7%
CN1CCN(CC(=O)Nc2nnc(-c3cccs3)s2)CC1	3.7%	-0.4%	23.7%	3.6%	-5.3%	-1.4%	5.0%	18.1%
COc1ccccc1N1CCN(S(=O)(=O)c2c(C)nc3sc(C)c(C)n3c2=O)CC1	nt	-3.0%	2.0%[46.1 µM]	nt	-24.9%	2.5%	nt	nt
O=C(Nc1ccc(Cl)cc1F)c1oc(=O)c2ccccc2c1-c1ccccc1	nt	-5.9%	-0.4%[46.1 µM]	nt	?	18.1%	nt	-10.4%[46.1 µM]
Cc1ccc(C(=O)C2CCN(CC(=O)Nc3nc(C)cs3)CC2)cc1	-14.9%	4.0%	-14.6%	-0.2%	-27.2%	-7.3%	9.3%	nt
CNC(=O)Nc1ccccc1C(=O)NCc1ccccc1	-5.3%	6.0%	-4.1%	-0.6%	-8.1%	14.4%	17.2%	?
CC12CCC(C3NC(=S)NN=C31)C2(C)C (stereo unspecified)	nt	nt	2.1%[46.1 µM]	nt	-9.4%	nt	5.2%	?
S=C(NCCN1CCOCC1)NC1CCCC1	nt	nt	14.1%	-0.8%	-2.9%	nt	5.4%	?
c1ccc(-c2nn3c(C4CCCCC4)nnc3s2)nc1	-24.7%	-1.0%	10.3%	-6.0%	16.7%	-1.7%	21.8%	6.0%
CC1CN(C(=O)CSc2nnc(-c3ccc(Cl)cc3)n2C)CC(C)O1 (stereo unspecified)	3.2%	4.5%	1.0%	2.0%	nt	1.2%	7.5%	-0.3%
CS(=O)(=O)c1ccc(NS(=O)(=O)c2ccc(Cl)c(C(=O)NC3=NCCS3)c2)cc1	nt	nt	-12.1%	4.0%	-12.7%	nt	-17.0%	-6.9%
COc1ccc(NC(=O)Cn2cc(C(=O)C3CC3)c3ccccc32)cc1	-3.9%	-4.5%	15.2%	10.4%	11.3%&-15.3%	5.7%	12.3%	?
Cc1coc2c1c(C)cc1oc(=O)c(CC(=O)NCCCN3CCCC3=O)c(C)c12	-3.2%	nt	nt	-5.2%	-16.9%	nt	12.0%	nt
Cc1c(C)n(Cc2ccc(Cl)cc2)c2ccc(C(=O)N3CCN(c4ccccc4F)CC3)cc12	nt	1.0%	-21.6%[46.1 µM]	nt	-2.4%	12.6µM*	nt	nt
Cc1noc(C)c1/C=N/Nc1ccc2ccccc2n1	nt	nt	-25.4%	1.6%	19.4%	nt	-10.3%	-0.9%[46.1 µM]
CCC(C)NS(=O)(=O)c1ccc(OC)c(Cl)c1Cl (stereo unspecified)	-15.2%	-3.2%	-4.3%	-9.9%	25.5%	3.1%	-11.5%	-10.7%[46.1 µM]
O=C(NN1CCOCC1)c1ccc(Cl)cc1[N+](=O)[O-]	13.8%	nt	nt	-1.1%	-10.9%	nt	-1.2%	nt
CC1(C)CC(N2CCCCC2)=CC(=[N+]2CCCCC2)C1	-1.8%	nt	?	-0.2%	?	nt	-13.3%	?
CCSc1nc(-c2ccccc2OC)nc2c1Cc1c(CO)cnc(C)c1O2	nt	-3.3%	-25.4%[46.1 µM]	nt	-13.0%	20.6%	nt	nt
CC1(C)C(=O)CCC2C1=CCC1C2CCC2(C)C(O)CCC12 (stereo unspecified)	nt	nt	-21.0%	nt	0.0%	nt	12.8%	-13.6%
CCOC(=O)N1CCN(C2CC(=O)N(c3ccc(Oc4ccccc4)cc3)C2=O)CC1 (stereo unspecified)	-13.4%	-3.1%	3.1%	-46.7%	?	?	-14.2%	-1.0%
CCCC1S/C(=N/N=C/c2ccco2)NC1=O (stereo unspecified)	4.5%	-0.4%	4.7%	-9.9%	?	4.0%	-2.5%	-6.4%
O=C(CSc1ncnc2sccc12)NC1CCS(=O)(=O)C1 (stereo unspecified)	nt	nt	7.4%	2.2%	-4.8%	nt	6.9%	?
CCCCNC(=O)CSc1nc2cc3c(cc2c(=O)n1CCCN(CC)CC)OCO3	-11.6%	-1.2%	7.3%	1.3%	-14.0%	-6.5%	4.4%	?
O=C(c1cc(-c2ccccc2O)on1)N1CCCCC1	nt	-6.7%	?	nt	35.2%[activator]	7.2%	nt	?
Cc1ccc(CNC(=O)CN2N=C(c3ccc(C)cc3)CCC2=O)cc1	nt	0.4%	-1.6%[46.1 µM]	nt	-11.3%	13.3%	nt	nt

Compounds were not picked by outcome; any-hit rate near 4.7%.
